Bfl-1 A1 inh – inhibitors of the anti-apoptotic protein A1, read as caspase activation. MEF A1-2A-BIM cells, Caspase-Glo 3/7 luminescence, 3 h; percent of clofoctol response, vehicle zero. AID 2462. 330,000 compounds, 0.066% hits. caspase activation, % (test concentration not listed);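 active means over half of replicate activation scores above 10%, or exactly half above 10 with the replicate mean above 10; inconclusive means replicate mean below 10 yet half the replicates above 10; inactive means over half of replicates below 10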;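 further: wells of about 30 µL received 50 nL stock; many hits fall short of the cut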
Beta cell apopt – beta cell apoptosis inhibition; INS-1E cytokine-induced death, ATP luminescence, 48 h; percent of positive-control rescue, neutral wells zero; protection from apoptosis, % (no concentration beside the values); 300,000 compounds, 0.8% hits; AID 435005;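 active means all replicates at 75% or more, or half of them and the mean; inconclusive means half reach 75% but not the mean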;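 further: 0% = cytokine-treated negative control wells and 100% = positive control rescue; higher means more ATP so stronger rescue from cytokine killing; wells of about 40 µL received 100 nL stock; the first replicate is given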
T cruzi repl – blocks replication of Trypanosoma cruzi | T. cruzi beta-gal in NIH3T3, luminescence, 90 h | inhibition, % (test concentration not listed) | 300,000 compounds, 1.4% hits | AID 1885;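 active means mean inhibition across valid replicates above about 55%, limit read from the data; inconclusive means mean below that limit but half or more replicates reach it; inactive means mean below it, under half of replicates reach it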;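 further: signal also drops with host cell toxicity which is not excluded here; 0% = plate median of DMSO wells and 100% = zero luminescence signal; higher percent means less beta-gal luminescence so fewer parasites; stock transfer was 50 nL into about 50 µL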
MLL AF4-AF9 inh – inhibitors of human MLL-AF4/AF9 interaction | inhibition, % at 10 µM | P42568 | AID 651704 | AlphaScreen, biotin-AF4 peptide binding to FLAG-AF9 | 350,000 compounds, 0.47% hits;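 active means every replicate reaching a set inhibition limit, whatever the replicate mean, cut at about 25% in these data; inconclusive means mean inhibition reaches that limit but some replicates miss it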;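 further: 0% = plate neutral control median and 100% = total signal loss; the record names both 10 and 1 µM as test concentration; the first replicate is given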
Target sequence (P42568 whole entry, looked up): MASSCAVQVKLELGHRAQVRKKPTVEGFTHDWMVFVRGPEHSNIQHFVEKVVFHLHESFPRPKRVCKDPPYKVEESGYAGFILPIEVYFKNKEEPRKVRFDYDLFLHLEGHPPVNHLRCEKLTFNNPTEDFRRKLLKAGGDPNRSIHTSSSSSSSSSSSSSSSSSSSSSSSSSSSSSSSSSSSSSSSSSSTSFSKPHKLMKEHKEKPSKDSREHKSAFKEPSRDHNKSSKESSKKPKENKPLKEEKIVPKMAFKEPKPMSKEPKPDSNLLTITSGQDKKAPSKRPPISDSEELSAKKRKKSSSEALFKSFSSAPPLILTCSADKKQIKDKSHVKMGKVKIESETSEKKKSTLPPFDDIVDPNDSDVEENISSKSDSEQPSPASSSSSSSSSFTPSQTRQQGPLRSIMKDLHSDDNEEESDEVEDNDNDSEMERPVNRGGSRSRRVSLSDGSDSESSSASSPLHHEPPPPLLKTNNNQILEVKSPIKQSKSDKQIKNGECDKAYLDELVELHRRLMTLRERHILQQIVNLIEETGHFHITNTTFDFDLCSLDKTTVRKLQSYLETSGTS
RanGTP-Imp inh – disruptors of Ran-importin-beta complex formation – biochemical, FRET, CFP-Ran, YFP-importin-beta, homogeneous, primary screen; cell-free CFP-Ran/YFP-importin-beta FRET ratio; inhibition, % (test concentration not listed); 300,000 compounds, 1.1% hits;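 active means most replicates above 15%; inconclusive means exactly half above 15%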;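 further: 0% = DMSO wells and 100% = Ran loaded with GDP instead of GTP; wells of about 40 µL received 100 nL stock; the first replicate is given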
Calb FLC – affects C. albicans growth with fluconazole. C. albicans CaCi-2 (fluconazole-resistant clinical isolate) + fluconazole, Alamar Blue growth, 48 h. AID 1979. 300,000 compounds, 0.57% hits. growth inhibition, % (test concentration not listed);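 active means most replicates above 75%; inconclusive means exactly half above 75%; inactive means most below 75%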;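 further: all wells also contain fluconazole at 8 µg/ml as a sub-toxic cotreatment; 0% = median of DMSO wells and 100% = median of geldanamycin control wells; wells of about 8 µL received 7.5 nL stock; the first replicate is given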
rRNA inh HTS – inhibits bacterial ribosomal RNA function over humanized ribosomes. E. coli WT GFP vs humanized-ribosome RFP mutants, fluorescence, 24 h; stronger effect = lower value; DMSO median 0, no signal -100. 350,000 compounds, 1.6% hits. GFP signal change (wild-type ribosome), % (no concentration beside the values);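 active means significant combined selectivity score with lowered wild-type GFP, culture density cut under 30%, mutant RFP and density less affected; inactive means any of these conditions unmet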; further: one replicate is shown; some compounds called inactive have numbers as strong as hits
Vif A3G – inhibitors of Vif binding to APOBEC3G peptide, primary screen, biochemical, TR-FRET, GST-Vif 1-94, biotin-A3G peptide, dose response retest (AID 1117319); TR-FRET GST-Vif / biotin-A3G peptide binding; higher % means a stronger effect; test concentration not given here; strong numbers were not always called active; one-dose inhibition, %; IC50 in µM for titrated hits; 260,000 compounds, 0.57% hits;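 active means above the screen mean plus three standard deviations and confirmed in dose response; inconclusive means results disagree or hit not tested in dose response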;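 further: Vif residues 1-94 fused to GST binding biotinylated APOBEC3G peptide 110-148; 0% = full assay without inhibitor and 100% = GST in place of GST-Vif; retest series ran down from 100 µM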
rRNA inh HTS OD600 – second read-out of rRNA inh HTS, no call of its own (marks repeat the call); OD600 change, %; measured here: OD600 growth;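 optical density of the mix in the first replicate; 0 = DMSO median and -100 = no signal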
rRNA inh HTS RFP – second read-out of rRNA inh HTS, no call of its own (marks repeat the call); RFP signal change, %; measured here: RFP humanized mutant strains;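 first replicate; 0 = DMSO median and -100 = no signal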
Starred values were filed as active, the others as inactive; ? = inconclusive; . = no result given. Some of the compounds tested (hit frequency here may not be typical).

SMILES | Bfl-1 A1 inh | Beta cell apopt | T cruzi repl | MLL AF4-AF9 inh | RanGTP-Imp inh | Calb FLC | rRNA inh HTS | rRNA inh HTS OD600 | rRNA inh HTS RFP | Vif A3G
Cc1ccc(CN2CCN(Cc3cnn(-c4ccc(Cl)cc4)c3)CC2CCO)o1 (stereo not given) | 0.8 | 7.4 | 17.2 | 4.5 | -2.4 | -19.7 | 7.7 | 6.0 | 1.6 | .
O=C(NCc1n[nH]c(=S)n1-c1ccc(Br)cc1)c1ccc(S(=O)(=O)N2CCCC2)cc1 | 0.2 | 1.8 | -0.6 | -2.4 | -3.2 | -6.9 | -3.4 | 4.5 | -0.1 | -1.1%
Cc1nn(C)c(Cl)c1NC(=O)OCc1ccccc1 | -0.8 | -0.5 | -8.4 | . | -1.4 | -10.6 | 0.9 | -0.9 | -1.1 | -7.6%
CC1=C(C(=O)Nc2ccccc2Cl)C(c2ccc(N(C)C)cc2)NC(=O)N1 (stereo not given) | ? | -4.2 | -11.6 | . | -8.0 | 3.2 | . | . | . | 7.0%
COc1cccc(COCC(O)CN2CCC(C(N)=O)CC2)c1 (stereo not given) | 0.1 | . | -8.3 | -0.8 | -3.8 | 1.6 | 0.4 | 5.4 | -1.3 | 1.2%
CCC/C=C1/CCCOC(C(=O)NCCNCCO)(C(F)(F)F)C1 (stereo not given) | 0.1 | -4.7 | 5.9 | . | -2.4 | 0.3 | . | . | . | .
CCOC(=O)c1ccccc1NC(=O)CN(c1ccccc1OCC)S(C)(=O)=O | -0.4 | 1.6 | 5.0 | . | 3.5 | ? | . | . | . | -2.1%
COc1cc(C(=O)NNC(=O)C2CC=CCC2C(=O)O)cc(OC)c1OC (stereo not given) | -0.1 | -1.7 | -1.2 | 0.3 | 0.2 | -3.3 | 24.9 | 18.4 | -3.2 | 0.8%
CCc1ccc(NC(=O)C(NS(=O)(=O)c2ccc3c(c2)CCN3C(C)=O)C(C)C)cc1 (stereo not given) | 0.1 | -0.5 | -4.7 | -2.9 | -1.5 | -5.3 | 13.5 | 15.9 | -1.5 | 0.4%
CC(=O)c1sc(N/N=C\c2ccc(C)cc2)nc1C | -2.7 | -5.6 | -7.0 | -2.1 | 6.0 | 41.6 | 12.2 | 12.5 | 3.8 | 3.0%
COc1ccc(-n2nc(C(=O)NCC(=O)N3CCCC3)c3ccccc3c2=O)cc1 | 0.1 | 0.0 | 1.5 | -3.2 | -2.2 | -5.9 | -2.0 | 0.5 | -0.4 | .
O=C(O)c1cnc2[nH]c3ccccc3n2c1=O | -0.2 | 2.3 | -2.0 | -10.5 | -1.6 | -8.6 | 8.4 | 9.1 | -4.4 | 13.0%
CCc1ccccc1NC(=O)CN(C)C(=O)CSc1nnc(Nc2cccc(C)c2)s1 | 0.7 | -3.4 | 13.9 | 1.0 | 1.4 | -7.0 | 1.2 | 5.7 | -7.0 | .
CCCCCC(C(=O)O)C(C)CC(=O)NC1CCCCC1 (stereo not given) | -0.4 | -6.0 | 9.1 | . | 3.0 | 0.7 | . | . | . | -1.3%
Cc1onc(C(=O)NN)c1-c1csc(COc2ccccc2)n1 | -3.6 | -2.3 | -8.0 | 2.2 | 1.8 | -13.5 | 3.2 | 0.0 | 3.4 | -0.3%
CCN(CC)S(=O)(=O)c1ccc(OC)c(NC(=O)CCS(=O)(=O)Cc2ccccc2)c1 | 0.7 | -1.1 | 22.2 | -0.6 | 3.3 | -1.7 | -8.0 | -7.8 | -1.8 | -12.4%
Cc1cc(NC(=O)CSc2nnc(-c3ccccc3)c(-c3ccccc3)n2)no1 | -0.7 | -5.7 | 3.7 | 0.7 | 4.7 | 12.5 | 15.8 | 3.4 | -1.2 | -8.0%
O=c1[nH]cnc2sc3c(c12)CCCC3 | -1.5 | -8.3 | 4.0 | . | 1.1 | -1.8 | . | . | . | -6.5%
CN(CC(=O)NCCc1ccccc1)S(=O)(=O)c1ccccc1 | -0.9 | 0.7 | -8.3 | -2.0 | -5.1 | 21.5 | 1.7 | -1.6 | -3.2 | -7.5%
O=[N+]([O-])c1ccc2nc(-c3ccccc3)oc2c1 | -8.1 | . | 11.1 | 2.5 | 1.2 | 13.5 | -9.7 | -15.2 | -6.1 | 68.8%
CN(CC(=O)Nc1ccc2c(c1)OCCO2)S(=O)(=O)c1ccc(Br)s1 | 2.2 | 2.6 | -8.0 | . | -2.6 | -1.7 | . | . | . | 1.4%
C[C@H](NC(=O)c1cc2cc(Cl)ccc2n1C)C(=O)N1CCC[C@H]1C(=O)O | 0.0 | 1.2 | -11.5 | -1.9 | 0.7 | 0.4 | . | . | . | .
O=S(=O)(NCC(c1ccco1)N1CCN(c2ccccc2)CC1)c1ccc(F)cc1 (stereo not given) | -0.3 | -3.0 | 5.0 | . | -3.2 | 3.5 | . | . | . | .
Cc1ccc(C(=S)N2CCCCCC2)cc1 | -1.4 | -2.4 | -9.2 | 1.8 | 2.1 | -29.1 | 6.4 | 11.4 | -3.8 | .
Cc1cc(C)n2ncc(C(=O)O)c2n1 | -0.4 | -5.1 | -8.6 | -0.4 | 1.2 | -32.2 | 12.1 | 5.7 | -4.0 | .
CCOC(=O)N1CCN(C(=O)c2cc3c(=O)n4ccccc4nc3s2)CC1 | -0.6 | -1.5 | -7.7 | -0.6 | 0.9 | 0.3 | -1.3 | 5.7 | 0.9 | 4.2%
O=C(COC(=O)c1ccc(Cl)c(S(=O)(=O)N2CCCCC2)c1)NCC1CCCCC1 | -0.5 | -5.3 | . | -2.7 | . | . | -15.2 | -17.1 | 6.2 | -0.6%
CC(=O)c1ccccc1OCC(O)Cn1ccnc1 (stereo not given) | -0.3 | -8.0 | 2.9 | -0.8 | 1.3 | 5.3 | 8.4 | 6.7 | -0.6 | -1.1%
COc1ccccc1C(=O)NNC(=O)C1CC=CCC1 (stereo not given) | 1.0 | -5.2 | -0.9 | 2.7 | 3.9 | 3.2 | 22.2 | 8.9 | 0.4 | .
CC(C)(C)c1nnc2sc(SCC(=O)c3ccc(Cl)cc3)nn2c1=O | -0.1 | -10.7 | -1.2 | . | 4.6 | ? | 9.6 | 9.4 | 0.4 | ?
CSc1ccccc1NC(=O)c1cccc(S(=O)(=O)N2CCN(C)CC2)c1 | 1.1 | 4.8 | -7.2 | -2.6 | 0.3 | -34.9 | 4.4 | 5.4 | -2.2 | .
COc1ccc(C(=O)C2CCN(C(=O)Nc3ccc(C)cc3)CC2)cc1 | -0.7 | 3.0 | 23.5 | 0.9 | -2.5 | -0.1 | -2.1 | -14.8 | -1.2 | .
CN(NC1OC(=O)c2ccccc21)c1ncc(Cl)cc1C(F)(F)F (stereo not given) | -3.9 | -5.1 | -9.4 | -1.6 | 1.5 | 9.4 | -15.3 | -9.9 | -5.2 | .
CC#CCCC(=O)N1C=Cc2ccccc2C1C#N (stereo not given) | 0.2 | -0.4 | 1.7 | . | 2.5 | -5.7 | . | . | . | 18.4%
O=C(c1ccccc1)c1ccc2nc(-c3ccco3)c(-c3ccco3)nc2c1 | -0.1 | -3.0 | -1.0 | 1.4 | 0.3 | 13.7 | -44.1 | 27.2 | -20.1 | 3.3%
Cc1nn(S(=O)(=O)N2CCCCC2)c(C)c1Br | -0.9 | . | 5.5 | . | -2.6 | 1.3 | . | . | . | 2.7%
O=C(C1=C(O)C(=O)N(Cc2ccco2)C1c1cccnc1)c1cc2ccccc2o1 (stereo not given) | -0.8 | -7.1 | 1.1 | . | 3.3 | -3.2 | . | . | . | -4.5%
COc1ccc(NC(=O)Nc2ccc(OCc3ccccc3)cc2)cn1 | 0.8 | 3.5 | -8.5 | 1.0 | 1.9 | 7.9 | 7.8 | 12.5 | 2.9 | 3.7%
Cn1c(SCC(=O)N2CCCCCC2)nc2c(c1=O)SCC2 | 0.3 | -2.4 | -12.8 | 0.0 | -4.5 | -6.6 | 3.3 | 4.1 | 0.7 | .
O=C(O)c1ccc2oc(=O)c(S(=O)(=O)c3ccccc3)cc2c1 | 1.1 | -6.2 | -2.0 | -0.5 | -5.3 | 1.9 | 5.2 | 9.3 | -0.3 | -1.8%
O=S(=O)(c1cnccc1N1CCN(CCO)CC1)N1CCCCC1 | -0.4 | . | 7.2 | 0.9 | 3.0 | 3.1 | 21.5 | 23.0 | 1.8 | 1.2%
COc1ccc(CC(O)CC2c3c(cc4c(c3OC)OCO4)CCN2C)cc1 (stereo not given) | -0.2 | -17.7 | 4.8 | 1.8 | 0.1 | -23.0 | 2.2 | 3.7 | 4.7 | 4.7%
COc1ccc(N(Cc2ccccc2)N=O)cc1 | -0.7 | -0.9 | -13.1 | 0.3 | 0.0 | 0.3 | 5.4 | 7.3 | 8.9 | 3.2%
CCn1c(=O)n(CC)c2cc(N3CCCC3)c(NC(=O)c3cccc(Cl)c3)cc21 | -0.6 | -2.2 | 31.4 | 11.2 | 1.1 | 1.9 | -11.6 | -16.3 | 1.3 | .
CC(C)c1nc(SCC(=O)Nc2nc3c(s2)CCCC3)c2ccccc2n1 | 0.2 | -5.9 | 35.0 | . | 3.4 | -10.8 | . | . | . | -6.9%
COc1ccccc1C(=O)NNC(=O)c1ccc(C)cc1 | -0.5 | 2.9 | -5.5 | -3.4 | 1.6 | 2.8 | 12.8 | 4.0 | 1.2 | .
C[C@H]1CN=C(N(C)C)N1CCc1ccc(F)cc1 | 0.3 | -5.8 | . | -3.2 | . | . | 12.5 | 16.3 | -2.1 | .
COc1ccc(S(=O)(=O)N2CCC(C(=O)NCCCc3ccccc3)CC2)cc1 | 0.7 | . | 12.9 | 0.9 | 0.6 | -1.1 | 4.9 | -7.1 | 0.8 | .
COc1ccc(CN2C(=O)CN=C2Nc2cccc(C)c2C)cc1 | -0.2 | -1.0 | -12.2 | . | 0.2 | -0.8 | . | . | . | -2.1%
COc1cc(/C=C/C(=O)c2cccc([N+](=O)[O-])c2)cc(OC)c1OC | -0.9 | 0.0 | -0.8 | 11.8 | 5.6 | 19.7 | . | . | . | 23.9%
O=[N+]([O-])c1ccc(O)c(Nc2c([N+](=O)[O-])ccc3nonc23)c1 | -0.5 | 2.4 | 9.0 | 15.6 | -6.5 | 25.8 | -9.5 | -4.9 | 6.2 | 0.9%
Cc1cc(NC(=O)COn2nnc3ccc(S(C)(=O)=O)cc32)ccc1Br | 0.1 | -12.0 | -10.3 | 7.6 | -0.1 | 1.2 | -10.7 | -2.4 | 3.5 | 8.2%
